Source: PubChem
PINK1 modulator: A Quantitative High throughput Screen to Identify Chemical Modulators of PINK1 Expression; PINK1 immunofluorescence, high-content cytometry, 24 h; Potency, µM (top dose mostly 76.6 µM), for the others: at the top dose activation (PINK1 increase), usual class: activators; 0.2% of 410,000 active; AID 624263, 2012; active = well fitted activation curve with a large enough effect; inconclusive = small, poorly fitted or top-dose-only effect; inactive = flat fitted curve, though single readings scatter; cell line not stated here;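 further: potency means the concentration at half of the fitted maximal effect; % of control where 0% means no effect; nearly all actives have a fitted effect of over 65% in size; a mitochondrial uncoupler was the plate control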
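A stable cell line was treated with compounds at 5 concentrations for 24 hours, with CCCP as control. PINK1 levels and mitochondrial localization were measured by immunofluorescence with mitochondrial, cell and nuclear markers after fixation, read by laser-scanning cytometry.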
D2 ag: Beta-Arrestin HTS for Positive Allosteric Modulators of the Human D2 Dopamine Receptor: Agonists; 0.084% of 360,000 active; DiscoveRx PathHunter D2 beta-arrestin, luminescence, 90 min; 100% = 57 uM dopamine signal; D(2) dopamine receptor (Homo sapiens), P14416; activation, % (no concentration beside the values); in the data active = activation above about 40%; inconclusive = about 15% to 40%; inactive = below about 15%; further: compound concentration not given in the record; the text of the record calls up to 30% inactive
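DiscoveRx PathHunter D2 beta-arrestin cells (2,100/well) attached overnight, then compound-stimulated 90 min at 37 C in HBSS/10 mM HEPES/0.1% Tween-20 buffer; beta-galactosidase complementation read by luminescence after 1 h at ambient temperature. Dopamine 57 uM final (EC100) as control.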
Six1-Eya2 inh: qHTS Assay for Inhibitors of the Six1/Eya2 Interaction. Homeobox protein SIX1 (Homo sapiens) + Protein phosphatase EYA2 (Homo sapiens), …. 0.56% of 360,000 active. activity change, % (concentration not given with the values). AlphaScreen GST-Six1/His-Eya2 binding, biochemical; stronger effect = lower value; control for the full effect not named in the record. AID 651725, 2012; in the data active = activity change below about -65%; inconclusive = about -30% to -65%; inactive = above about -30%; further: on the % scale 0 is the no-effect control and ±100 the full control effect
Target sequence (O00167 whole entry, looked up): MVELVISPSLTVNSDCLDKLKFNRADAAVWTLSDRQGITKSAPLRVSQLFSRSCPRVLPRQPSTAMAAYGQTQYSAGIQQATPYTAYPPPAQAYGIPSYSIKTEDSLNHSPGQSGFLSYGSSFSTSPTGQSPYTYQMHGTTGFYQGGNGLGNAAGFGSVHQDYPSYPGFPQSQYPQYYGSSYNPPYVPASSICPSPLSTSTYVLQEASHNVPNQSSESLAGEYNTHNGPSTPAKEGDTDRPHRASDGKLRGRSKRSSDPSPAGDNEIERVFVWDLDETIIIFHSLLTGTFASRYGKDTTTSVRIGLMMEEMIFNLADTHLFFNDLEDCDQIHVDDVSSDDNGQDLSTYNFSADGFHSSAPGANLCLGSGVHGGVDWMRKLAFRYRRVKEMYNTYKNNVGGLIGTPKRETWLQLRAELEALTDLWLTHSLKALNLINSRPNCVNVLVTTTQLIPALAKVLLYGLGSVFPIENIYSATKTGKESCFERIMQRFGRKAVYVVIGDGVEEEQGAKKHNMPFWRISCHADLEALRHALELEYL
Target sequence (Q15475 whole entry, looked up): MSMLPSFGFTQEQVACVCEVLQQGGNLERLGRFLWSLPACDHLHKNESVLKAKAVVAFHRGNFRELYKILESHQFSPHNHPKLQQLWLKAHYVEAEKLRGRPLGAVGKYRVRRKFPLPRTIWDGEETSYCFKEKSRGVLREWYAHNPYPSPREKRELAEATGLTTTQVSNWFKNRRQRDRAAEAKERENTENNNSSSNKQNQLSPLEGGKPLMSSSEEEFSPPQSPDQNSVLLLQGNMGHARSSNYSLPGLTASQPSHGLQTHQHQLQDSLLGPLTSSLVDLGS
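GST-Six1 + His-Eya2 (5X stock: 250/500 nM); Tris pH 8.0, 300 mM NaCl, 0.05% BSA, 0.02% Tween 20; GSH donor/Ni acceptor beads; 1 h 37 °C dark; AlphaScreen readout.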
CtBP-E1A blk: qHTS Assay for Inhibitors of the CtBP/E1A Interaction | 0.49% of 340,000 active | AlphaScreen GST-E1A/His-CtBP binding, 1536-well; stronger effect = lower value; control for the full effect not named in the record | activity change, % (no concentration beside the values) | CtBP / adenovirus E1A interaction (AlphaScreen); in the data active means activity change below about -65%; inconclusive means about -30% to -65%; inactive means above about -30%; further: on the % scale 0 is the no-effect control and ±100 the full control effect; compound concentration not given in the record
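Protein mix (5X: 125 nM each GST-E1A, His-CtBP) was incubated with pinned compound 2 h at 37 deg C in dark, in 50 mM Tris pH 8.0 buffer with 300 mM NaCl. Glutathione donor and nickel acceptor beads followed; AlphaScreen signal read after 1 h.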
TRPML1 agonist: qHTS for Agonists of the Human Mucolipin Transient Receptor Potential 1 (TRPML1) | TRPML1-expressing cells, Ca2+ dye fluorescence, FDSS; host cell line not named in the record; reference of the full effect not given here | activation, % (concentration not given with the values) | 0.12% of 410,000 active | AID 624414, 2012; in the data active = activation above about 50%; inconclusive = about 30% to 50%; inactive = below about 30%; further: 0% is about no effect; the text of the record puts the active cut at 80%
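Tetracycline-induced TRPML1-DL cells are seeded and incubated overnight before loading with a no-wash Ca2+ dye and quencher. Agonist activity is taken from the 110 s fluorescence read following compound pin-transfer on an FDSS, before EC80 54-4 challenge.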
TRPML1 blocker: qHTS for Inhibitors of the Human Mucolipin Transient Receptor Potential 1 (TRPML1) | TRPML1-inducible cells, Ca2+ dye fluorescence, FDSS; stronger effect = lower value; inhibition of EC80 agonist-evoked calcium signal | Mucolipin-1 (Homo sapiens), Q9GZU1 | activity change, negative = inhibition, % (concentration not given with the values) | AID 624415, 2012 | 0.02% of 390,000 active; in the data active means activity change below about -50%; inconclusive means about -30% to -50%; inactive means above about -30%;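 further: stimulus is agonist 54-4 at its EC80 concentration; on the % scale 0 is the no-effect control and ±100 the full control effect; compound concentration not given in the record; the text of the record puts the active cut at -80%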
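Tet-induced TRPML1-DL cells loaded with Ca8 no-wash calcium dye were read kinetically on FDSS. Compound addition was followed by EC80 agonist 54-4 (4 uM final); inhibition was read over 110 s.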
An asterisk follows results filed as active; [ ] = dose if it differs, or a comment.

For COc1cccc(CN(C)C(=O)c2cc(S(=O)(=O)NC3CCCCC3)ccc2C)c1OC the results were PINK1 modulator -1.8%, D2 ag -1.2, Six1-Eya2 inh 2, CtBP-E1A blk -5, TRPML1 agonist 0.2 and TRPML1 blocker 8.
CCOC(=O)[C@]12CCC=C1N(Cc1ccc3c(c1)OCO3)C(=O)[C@H](CC(=O)N1CCC(c3ccccc3)CC1)C2 was read as PINK1 modulator 0.2%, Six1-Eya2 inh -26, CtBP-E1A blk 1 and TRPML1 agonist -0.5.
Screening CC(=O)C1=C(O)C(=O)N(CCc2c[nH]c3ccccc23)C1c1ccc(O)cc1 (stereo not given) returned PINK1 modulator 0.5%, D2 ag -2.8, Six1-Eya2 inh -3, CtBP-E1A blk 0, TRPML1 agonist -0.2 and TRPML1 blocker 4.
`O=C(NC(NCc1ccccn1)(C(F)(F)F)C(F)(F)F)c1ccco1` gave PINK1 modulator 2.6%[38.3 µM], D2 ag 5.7, Six1-Eya2 inh -73*, CtBP-E1A blk inconclusive, TRPML1 agonist 1.1 and TRPML1 blocker -2.
COCCNC(=O)C1(C)CCCN(Cc2noc(-c3ccccc3OC)n2)C1 (stereo not given) was read as PINK1 modulator 1.1%, D2 ag -4.9, Six1-Eya2 inh 2, CtBP-E1A blk 6 and TRPML1 agonist -0.6.
Screening CCOCCOC(=O)C(C)Oc1ccc(Oc2ncc(Cl)cc2Cl)cc1 (stereo not given) returned PINK1 modulator 4.5%, D2 ag -1.0, Six1-Eya2 inh 57, CtBP-E1A blk 39, TRPML1 agonist 3.8 and TRPML1 blocker 1.
For O=C(NN=C1CCCC1)c1ccn[nH]1 the results were PINK1 modulator -0.7%, D2 ag -2.4, Six1-Eya2 inh 0, CtBP-E1A blk -5, TRPML1 agonist 0.2 and TRPML1 blocker 71.
Screening CSCCC(NC(=O)C1CCCC1)c1nnc2ccccn12 (stereo not given) returned PINK1 modulator 2.5%, D2 ag 8.1, Six1-Eya2 inh 5, TRPML1 agonist 1.2 and TRPML1 blocker -1.
CC(C)(C)NS(=O)(=O)c1cc(C(=O)O)ccc1Cl was read as PINK1 modulator -2.0%, D2 ag 1.1, Six1-Eya2 inh 0, CtBP-E1A blk 8, TRPML1 agonist 0.7 and TRPML1 blocker 1.
For COc1cc2c(cc1OC)C(COc1ccccc1OC)N(C(C)=O)CC2 (stereo not given) the results were PINK1 modulator 0.8%, D2 ag -1.1, Six1-Eya2 inh 0, TRPML1 agonist -0.7 and TRPML1 blocker -10.
O=C1CCCc2c1nc(-c1ccc(F)cc1)n2O was read as PINK1 modulator 1.2%, D2 ag -8.3, Six1-Eya2 inh 1, CtBP-E1A blk 6, TRPML1 agonist 0.7 and TRPML1 blocker -18.
For Cc1ccc(OCC(=O)NCC2CCCO2)c(C)c1 (stereo not given) the results were PINK1 modulator 1.5%, D2 ag -0.7, Six1-Eya2 inh -3, CtBP-E1A blk -20, TRPML1 agonist 1.5 and TRPML1 blocker -6.
Screening CC(=C/c1ccccc1)/C=N/Nc1nc(N2CCOCC2)nc(N2CCOCC2)n1 returned PINK1 modulator -1.0%, D2 ag -5.8, Six1-Eya2 inh -2, CtBP-E1A blk 3, TRPML1 agonist -1.3 and TRPML1 blocker 4.
Screening CCNC(=O)C1(C)CCN(Cc2noc(-c3c(C)noc3C)n2)C1 (stereo not given) returned PINK1 modulator 1.8%, D2 ag -3.5, Six1-Eya2 inh 3, CtBP-E1A blk 1 and TRPML1 agonist -0.8.
For CCCCOC(=O)CCCc1ccc([N+](=O)[O-])cc1[N+](=O)[O-] the results were PINK1 modulator 1.0%, D2 ag -3.5, Six1-Eya2 inh -9, TRPML1 agonist 3.3 and TRPML1 blocker 30.
`COc1ccc(/C=C/C(=O)O)cc1S(=O)(=O)N1CCc2ccccc2C1` gave PINK1 modulator -0.6%, D2 ag 0.4, Six1-Eya2 inh -12, CtBP-E1A blk -15, TRPML1 agonist 1.1 and TRPML1 blocker 16.
O=S1(=O)N[C@H](Cc2ccccc2)COc2cc(N3CC[C@H](O)C3)ccc21 was read as PINK1 modulator 7.6%, Six1-Eya2 inh 2, CtBP-E1A blk -9 and TRPML1 agonist -0.1.
Screening O=C(CNC(=S)N(Cc1ccccc1)Cc1cccs1)NCc1ccc(F)cc1 returned PINK1 modulator -0.6%, D2 ag 1.0, Six1-Eya2 inh 3, CtBP-E1A blk -3, TRPML1 agonist 3.2 and TRPML1 blocker 13.
CCN(CC)C(=O)CSc1nc2c(sc(=S)n2-c2ccc(C)cc2C)c(=O)[nH]1 was read as PINK1 modulator -1.2%, D2 ag 7.3, Six1-Eya2 inh 2, CtBP-E1A blk -2, TRPML1 agonist 2.3 and TRPML1 blocker 9.
`CN(CCc1ccccn1)c1ccc([N+](=O)[O-])cn1` gave PINK1 modulator -0.3%, D2 ag -6.7, Six1-Eya2 inh 3, CtBP-E1A blk 7, TRPML1 agonist -0.8 and TRPML1 blocker 13.
`O=C(c1cn(Cc2ccccc2)nc1-c1cccnc1)N1CCN(Cc2c(F)cccc2Cl)CC1` gave PINK1 modulator 0.8%, D2 ag -0.8, Six1-Eya2 inh 2, CtBP-E1A blk 8, TRPML1 agonist -0.4 and TRPML1 blocker 22.
For COc1ccc(C(=O)Nc2ccc(N3CCOCC3)c(C(F)(F)F)c2)cc1OC the results were PINK1 modulator 0.2%, TRPML1 agonist 1.6 and TRPML1 blocker 11.
COc1ccc2cc(C(N)=O)/c(=N/NC(=O)c3ccco3)oc2c1 was read as PINK1 modulator 1.5%, D2 ag -1.2, Six1-Eya2 inh -12, CtBP-E1A blk -6, TRPML1 agonist -0.5 and TRPML1 blocker 35.
`Cc1ccc(N2CCN(S(=O)(=O)c3ccc4c(c3)NC(=O)C(C)C(=O)N4)CC2C)cc1` (stereo not given) gave PINK1 modulator 5.2%, D2 ag -3.0, Six1-Eya2 inh -8, CtBP-E1A blk 1, TRPML1 agonist -0.9 and TRPML1 blocker 3.
`N#Cc1cc2c(nc1SCC(=O)Nc1sc3c(c1C#N)CCC3)CCC2` gave PINK1 modulator 5.9%, D2 ag -4.8, Six1-Eya2 inh 7, CtBP-E1A blk -2, TRPML1 agonist 0.3 and TRPML1 blocker 33.
`O=C(N/N=C/c1cn(CCOc2ccccc2)c2ccccc12)c1ccncc1` gave PINK1 modulator -2.1%, D2 ag -1.6, Six1-Eya2 inh 15, CtBP-E1A blk -8, TRPML1 agonist -0.8 and TRPML1 blocker -1.
Screening COc1ccc(OC)c(NC(=O)Cc2c(C(=O)O)n(C)c3ccc(C)cc23)c1 returned PINK1 modulator 3.3%, TRPML1 agonist 0.1 and TRPML1 blocker 4.
Screening O=C(COc1ccc(Cl)cc1Cl)NCC1(N2CCOCC2)CCCCC1 returned PINK1 modulator 5.9%, D2 ag 3.3, Six1-Eya2 inh -6, CtBP-E1A blk -11, TRPML1 agonist 0.3 and TRPML1 blocker 6.
COc1cccc(NC(=O)CN(C)C(=O)c2ccc3[nH]c4c(c3c2)CC(C)CC4)c1 (stereo not given) was read as PINK1 modulator -1.9%, D2 ag -4.7, Six1-Eya2 inh -5, CtBP-E1A blk -2, TRPML1 agonist 0.4 and TRPML1 blocker 6.
COC(=O)C[C@H]1C[C@H]2c3cc(NC(=O)C4CCOCC4)ccc3O[C@H]2[C@@H](CO)O1 was read as PINK1 modulator 1.6%, D2 ag -6.1, Six1-Eya2 inh 2, CtBP-E1A blk 3, TRPML1 agonist -0.7 and TRPML1 blocker 6.
Cc1cccc(N(Cc2cc3ccccc3[nH]c2=O)C(=O)c2cccs2)c1 was read as PINK1 modulator 4.2%, D2 ag -1.9, Six1-Eya2 inh -4, CtBP-E1A blk -13, TRPML1 agonist 3.4 and TRPML1 blocker -4.
Cc1noc(C)c1S(=O)(=O)Nc1ccc2c(c1)C(=O)N([C@H](C)CO)C[C@H](C)[C@@H](CN(C)S(=O)(=O)c1ccc(F)cc1)O2 was read as PINK1 modulator 1.3%, D2 ag -2.1, Six1-Eya2 inh 4, CtBP-E1A blk 5, TRPML1 agonist -0.1 and TRPML1 blocker -5.
`N#Cc1ccc(C(=O)NCC(c2ccco2)N2CCCCC2)cc1` (stereo not given) gave PINK1 modulator 0.8%, D2 ag -5.6, Six1-Eya2 inh -5, CtBP-E1A blk 5, TRPML1 agonist -0.2 and TRPML1 blocker -6.
Screening COc1ccccc1-c1nnc(C2CCN(C(=O)c3cccc(Cl)c3)CC2)o1 returned PINK1 modulator 0.8%, TRPML1 agonist 0.7 and TRPML1 blocker 12.
For CN(c1ccccc1)c1nccc(=O)[nH]1 the results were PINK1 modulator 0.0%, D2 ag -7.5, Six1-Eya2 inh -1, CtBP-E1A blk -8, TRPML1 agonist -0.1 and TRPML1 blocker 39.
Screening COc1cc(C2c3c(-c4ccccc4O)n[nH]c3C(=O)N2CCO)ccc1OCc1ccccc1 (stereo not given) returned PINK1 modulator 7.0%, TRPML1 agonist -0.6 and TRPML1 blocker -12.
`C=C1CCN([C@@H](CC(C)C)C(=O)NCCC(C)C)S(=O)(=O)c2ccccc21` gave PINK1 modulator 1.2%, D2 ag -2.2, Six1-Eya2 inh 1, CtBP-E1A blk 0, TRPML1 agonist inconclusive and TRPML1 blocker -11.
Screening CCC(COC)NC(=O)CCc1nnc(Cc2c[nH]c3ccccc23)o1 (stereo not given) returned PINK1 modulator 0.5%, D2 ag -4.0, Six1-Eya2 inh 1, CtBP-E1A blk 8, TRPML1 agonist 0.4 and TRPML1 blocker -5.
`CCCc1ncc(C(O)(c2ccccc2)c2ccc(C)cc2)n1C` (stereo not given) gave PINK1 modulator -0.6%, D2 ag -3.2, Six1-Eya2 inh -6, CtBP-E1A blk -4, TRPML1 agonist 0.0 and TRPML1 blocker 13.

Compounds listed so far that have a furan ring, fused or not, in the order listed:
`O=C(NC(NCc1ccccn1)(C(F)(F)F)C(F)(F)F)c1ccco1` gave PINK1 modulator 2.6%[38.3 µM], D2 ag 5.7, Six1-Eya2 inh -73*, CtBP-E1A blk inconclusive, TRPML1 agonist 1.1 and TRPML1 blocker -2.
COc1ccc2cc(C(N)=O)/c(=N/NC(=O)c3ccco3)oc2c1 was read as PINK1 modulator 1.5%, D2 ag -1.2, Six1-Eya2 inh -12, CtBP-E1A blk -6, TRPML1 agonist -0.5 and TRPML1 blocker 35.
`N#Cc1ccc(C(=O)NCC(c2ccco2)N2CCCCC2)cc1` (stereo not given) gave PINK1 modulator 0.8%, D2 ag -5.6, Six1-Eya2 inh -5, CtBP-E1A blk 5, TRPML1 agonist -0.2 and TRPML1 blocker -6.
